Mtb H37Rv = M. tuberculosis H37Rv growth inhibitors, H37Rv strain (AID 1626). M. tuberculosis H37Rv growth inhibition; higher % means a stronger effect. inhibition, % at 10 µM, or IC50 in µM where a hit was titrated. actives 0.95% (n = 220,000);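 active means confirmed in a dose series; inconclusive means inhibition above 80% but not taken into the dose series; inactive means below 80% or under 30% at every dose of the series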;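 further: bacteria incubated seven days before Alamar blue readout; 0% = bacteria only wells and 100% = bacteria with antibiotic wells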
Mtb bLac sens = beta-lactam sensitization of Mtb H37Rv, H37Rv; AID 434955, 2010; actives 0.27% (n = 330,000); M. tuberculosis H37Rv growth with meropenem, percent inhibition; hits of this screen are not shown here; inhibition, % at 25 µM;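 active means about 74% or more and at least 40 points above the plate without the antibiotic, then above 30% in a dose series; inconclusive means first-round hits that could not be retested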;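 further: growth measured after seven days incubation then overnight dye step; 0% = bacteria only wells and 100% = bacteria with antibiotic; twin plates without the antibiotic show which effects depend on it; some results filed as inactive read as strong as hits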
RecA splice inh = Mtb RecA intein splicing inhibitors, primary screen, biochemical, fluorescence, HTS; Protein RecA (Mycobacterium tuberculosis (strain ATCC 25618 / H37Rv)), P9WHJ3; cell-free RecA intein splicing; inhibition, %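 (about 9 µM by stock and volumes)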; actives 0.75% (n = 290,000); in the data active means inhibition above about 30%; inconclusive means no clear call, values can overlap the other calls;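 further: 0% = vehicle wells and 100% = reference inhibitor control wells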
Target sequence (P9WHJ3 whole entry, looked up, canonical isoform): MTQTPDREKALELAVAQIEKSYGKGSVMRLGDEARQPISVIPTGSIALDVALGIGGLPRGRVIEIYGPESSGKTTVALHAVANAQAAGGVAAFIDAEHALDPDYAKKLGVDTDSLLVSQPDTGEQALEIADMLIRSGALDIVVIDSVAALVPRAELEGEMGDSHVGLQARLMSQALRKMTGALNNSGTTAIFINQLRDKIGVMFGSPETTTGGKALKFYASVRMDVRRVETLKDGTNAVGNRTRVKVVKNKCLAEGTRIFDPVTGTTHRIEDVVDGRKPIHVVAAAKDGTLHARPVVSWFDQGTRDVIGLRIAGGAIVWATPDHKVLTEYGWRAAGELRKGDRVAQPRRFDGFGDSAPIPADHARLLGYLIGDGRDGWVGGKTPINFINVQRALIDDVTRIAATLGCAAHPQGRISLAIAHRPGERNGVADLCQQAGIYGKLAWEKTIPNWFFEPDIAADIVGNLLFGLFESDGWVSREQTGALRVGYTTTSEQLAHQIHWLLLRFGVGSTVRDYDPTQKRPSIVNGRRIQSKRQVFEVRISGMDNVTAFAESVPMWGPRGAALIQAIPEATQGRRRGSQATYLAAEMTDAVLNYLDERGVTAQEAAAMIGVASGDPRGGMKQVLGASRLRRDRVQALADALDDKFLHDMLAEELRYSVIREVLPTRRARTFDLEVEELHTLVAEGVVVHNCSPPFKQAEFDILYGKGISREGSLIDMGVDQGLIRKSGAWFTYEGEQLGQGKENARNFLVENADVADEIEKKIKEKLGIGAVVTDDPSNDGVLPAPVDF
YopH PTP inh = YopH tyrosine phosphatase inhibitors, primary screen, biochemical, fluorescence Ex485/Em525; YopH tyrosine phosphatase [Yersinia enterocolitica]; inhibition, %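 (about 10 µM by stock and volumes)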; actives 0.16% (n = 140,000);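 active means inhibition of 50% or more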;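 further: controls were vehicle for no effect and minimum signal wells for full effect; inactives centre near -20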
Arbovirus anti = antivirals against arbovirus infection, primary screen, cell-based, full library, 10K replicate subset | inhibition, % at 10 µM | AID 1251, 2008 | arbovirus infection cell-based antiviral screen | actives 0.37% (n = 200,000);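 active means inhibition from about 30%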;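 further: bluetongue infection of BSR cells; cell survival read as ATP light after 72 h; 0% = infected wells without compound and 100% = uninfected wells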
Arbovirus anti repeat = further read-out of Arbovirus anti, marked with its call; inhibition, %; measured here: 10K subset replicate screen; many hits read low in the repeat;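 first of two repeat runs on a subset; 0% = infected and 100% = uninfected wells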
The depositor's hits bear a star; ? = inconclusive; . = no result given. This is a subset; the hit share may differ from the screen's.

SMILES	Mtb H37Rv	Mtb bLac sens	RecA splice inh	YopH PTP inh	Arbovirus anti	others
C=CCn1c(SCc2cccc(F)c2)nc2cc(C(=O)N3CCC(C(N)=O)CC3)ccc2c1=O	6%	?	3.1	-12	-18
N#Cc1nc(Cc2cccc3ccccc23)oc1NCCN1CCOCC1	-4%	-2	-1.1	-25	3
O=C(NNc1ncnc2sccc12)c1ccc(Cl)cc1	4%	-4	-3.1	.	.
CCOc1ccc(S(=O)(=O)N2CCCCC2)cc1NC(=O)CN1C(=O)NC(CC)(c2ccccc2)C1=O (configuration not stated)	.	-2	2.8	.	.
CN(C)Cc1cc(C(C)(C)C)cc(C(C)(C)C)c1O	-11%	-2	0.7	.	.
Cn1c(SCC(=O)c2ccc(O)cc2O)nnc1-c1ccccc1	.	-2	-4.6	.	.
Cc1ccsc1CNCCc1ccc(F)cc1	.	-4	-1.9	.	.
Cc1c(CC(=O)O)c(=O)oc2cc3oc4c(c3cc12)CCCC4	2%	-5	2.1	.	.
CN(C)C(=O)COc1ccc2c3c(c(=O)oc2c1)CCCC3	.	1	0.4	.	.
CCn1cc([N+](=O)[O-])c(C(=O)Nc2ccc(Cn3nc(C)cc3C)cc2)n1	-2%	-7	-1.2	2	4
CCN(CCC(=O)Nc1cc(OC)cc(OC)c1)Cc1ccccc1	3%	6	1.4	-26	-6	Arbovirus anti repeat=-5
O=C(O)c1ccccc1C(=O)Nc1cc(-c2ccccc2)[nH]n1	.	-9	-1.9	.	.
CCN(CC)CCOC(=O)C1(C2CCCCC2)CCCCC1	0%	1	1.3	-13	9
Cn1c(COc2ccc3ccccc3c2)nnc1SCC(=O)O	-2%	-10	2.0	-28	-2
COc1ccc(CNS(=O)(=O)c2cn(C)c(=O)n(C)c2=O)cc1	.	4	-1.5	.	.
COc1ccc(/C(N)=N/OC(=O)CCCc2ccccc2)cc1	5%	3	1.8	-18	3
CN(C(=O)COc1ccccc1C(=O)NCCc1ccccc1)c1ccccc1	0%	1	-3.1	-18	-7
O=C(Nc1ccc(Cl)c(Cl)c1)C1CC(=O)N(c2ccc(Br)cc2)C1 (configuration not stated)	?	92	5.6	3	-6
C=CCN(C(=O)CC(NC(C)=O)c1ccccc1)c1nc(-c2ccc(S(C)(=O)=O)cc2)cs1 (configuration not stated)	.	5	1.8	.	.
COc1ccc(Nc2nnc(SCC(=O)Nc3cc(C)on3)s2)cc1	-10%	.	.	0	-21
Nc1nc(CN2CCN(Cc3ccccc3)CC2)nc(Nc2ccc3c(c2)OCCO3)n1	3%	-1	1.4	-54	-2
O=C(c1ccc(Cl)s1)N1CCCC1	-12%	-3	4.2	-21	3
O=C1C2C(c3ccccc3)=NN(c3ccccc3)C2C(=O)N1c1ccccc1 (configuration not stated)	-3%	2	-34	-26	4
O=c1c(Cl)c(NS(=O)(=O)c2ccccc2)cnn1-c1ccccc1	-7%	-10	1.0	.	.
CCOc1cc(/C=N/NC(=O)C(=O)NCc2cccnc2)ccc1O	2%	-9	-0.8	.	6
COc1ccc(N2C(=O)C(Cl)=C(Nc3ccccc3O)C2=O)cc1	59%	98	.	-24	-3
O=C(c1cc(-c2ccc(Cl)s2)nc2ccccc12)N1CCCC1	.	3	-1.1	.	.
COCCn1c(C)cc(C(=O)COC(=O)c2c(C)nn(Cc3ccccc3)c2C)c1C	-1%	63	4.6	-26	-34
O=C(Nc1nc(-c2cccnc2)cs1)c1cccc([N+](=O)[O-])c1	-13%	14	-2.3	.	-8
O=C1CC(c2ccccc2)n2nc(NC(=O)c3cccs3)nc2N1 (configuration not stated)	.	-3	-0.9	-1	2
COc1ccccc1C(=O)NNC(=O)c1ccc(NC(=O)C(C)C)cc1	6%	.	-2.4	.	4
O=C(CN1CCN(S(=O)(=O)c2ccc(F)cc2)CC1)NC1CC1	.	3	0.1	.	.
Cc1cc(C)c2nc(NC(=O)[C@@H](NC(=O)c3cccc(S(=O)(=O)N4CCOCC4)c3)C(C)C)sc2c1	38%	8	-0.1	4	-9
COc1cc(C2c3[nH]c4ccccc4c3C[C@H]3C(=O)N(C4CC4)CC(=O)N23)ccc1OC(C)C (some centres not stated)	.	5	-1.0	.	.
CCN1CCN(CC(=O)N2CCCC(C(=O)c3ccc(Oc4ccccc4)cc3)C2)CC1 (configuration not stated)	-3%	-1	0.8	.	-30
CCCC1=NN2C(=N)/C(=C\c3cc(C)n(-c4cccc(C)c4)c3C)C(=O)N=C2S1	-3%	-2	-9.2	-12	33*
Cc1c(-n2c(SCC(=O)C(C)(C)C)nc3ccccc3c2=O)c(=O)n(-c2ccccc2)n1C	3%	2	-0.2	.	0
CCCc1cc(=O)[nH]c(SCC(=O)N2CCC(C(=O)OCC)CC2)n1	-15%	-1	-1.5	-3	20
CC(C)NC(=O)c1onc(CSc2cccc(Cl)c2)c1C(=O)O	-9%	86	0.1	-2	7
CN1CCc2c(sc3c2C(=O)NC(c2ccc(-c4ccc(Cl)cc4)o2)N3)C1 (configuration not stated)	76%	90	-97	.	.
COc1ccc(Nc2nc3ccccc3n3nnnc23)cc1	-1%	3	-6.8	0	-1
CCOc1ccc(C)cc1S(=O)(=O)n1nc(C)cc1C	2%	5	-1.9	.	-1
O=C(NC1CCCCCC1)c1ccccc1-c1ccccc1	36%	98	4.7	-6	-1
O=C(CSc1nnc(-c2ccco2)n1Cc1ccccc1)NC(=O)NCc1ccccc1	1%	0	-2.1	-36	2
COC(=O)C1C(=O)/C(=C(/C)N2CCCC2)C(=O)CC1(C)C (configuration not stated)	-11%	18	-5.7	4	0
COCCNC(=O)c1ccc(-n2c(SCc3cccnc3)nc3ccccc3c2=O)cc1	-4%	1	-1.3	.	-5
Cc1cc(C=NCCO)c(C)n1-c1cc(Cl)ccc1Cl	3%	-7	5.9	.	16
O=C(Cn1c(SCC(=O)N2CCc3ccccc32)nc2ccccc21)NC1CCCC1	-9%	9	-0.7	-27	-8
CCOc1ccc(NC(=O)C2C3CCC4C(CCC32)C4(Cl)Cl)cc1 (configuration not stated)	-4%	3	7.4	.	-9
C/C(=N\NC(=O)c1ccccc1O)c1ccc(NC(=O)c2ccccc2)cc1	.	-2	-0.9	.	.
CCn1c(C)nc2cc(C(N)=O)ccc21	-9%	-8	-0.1	.	.
CC(C)c1ccc(OCC(O)Cn2cnc3ccccc32)cc1 (configuration not stated)	21%	17	5.9	-7	11
O=C(NNC(=O)c1sccc1-n1cccc1)c1ccc(F)cc1	-2%	5	-0.6	.	1
COc1cc2c(cc1NC(=S)NC(=O)c1c(OC)cccc1OC)oc1ccccc12	-5%	-3	-3.1	-27	-14
C[n+]1ccccc1N1CCN(c2ccccc2Cl)CC1	0%	0	-2.0	-35	-4
CC(C)N(CC#CCC1(O)c2ccccc2-c2ccccc21)C(C)C	0%	-10	-0.6	-32	13
CC(C)COC(=O)N1C[C@H](O)C[C@H]1C(=O)Nc1ccc(Cl)cc1	.	?	-1.5	.	.
O=C(C1=C(O)/C(=C/c2ccc(O)cc2)CCC1)C(F)(F)F	8%	97	0.4	-16	0
Cc1ccc(C)c(NS(=O)(=O)c2cc(C(=O)Nc3cccc(N(C)S(C)(=O)=O)c3)ccc2C)c1	4%	1	3.0	-27	11
CC(=O)c1ccc(NC(=O)CNCc2cccs2)cc1	.	0	0.9	.	.
Next section
SMILES	Mtb H37Rv	Mtb bLac sens	RecA splice inh	YopH PTP inh	Arbovirus anti	others
Cc1ccc(CNC(=O)C(=O)NCC(c2ccco2)N2CCOCC2)cc1 (configuration not stated)	-3%	5	-4.9	-21	-9
CS(=O)(=O)N1N=C(c2ccco2)CC1c1ccc(Cl)cc1Cl (configuration not stated)	-10%	-2	2.3	.	-2
COC(=O)C1=C(C)N(Cc2ccco2)C(=O)N[C@H]1c1ccccc1	.	-16	-2.5	-10	8
C/C(=N\Nc1ccc(Cl)c(C(=O)O)c1)c1cccc2ccccc12	.	1	2.3	.	.
C[N+](C)(C)CCN(Cc1ccc(Cl)cc1)c1ccccn1	-7%	?	0.3	-12	8
O=C(O)CCCNC(=O)/C(=C\c1ccc(Cl)cc1)NC(=O)c1ccc(Br)cc1	5%	7	-0.7	.	4
O=C(Nc1ccc(F)cc1F)c1cccnc1Oc1cccc(C(F)(F)F)c1	-5%	-3	-1.1	-78	-1
CCOc1ccc(N2C(=O)CC(Sc3ccccc3C(=O)O)C2=O)c([N+](=O)[O-])c1 (configuration not stated)	-6%	5	8.4	.	5
CN(C)S(=O)(=O)n1cc(/C=C(\NC(=O)c2ccccc2)C(=O)N2CCOCC2)c2ccccc21	.	4	-1.8	.	.
COc1ccc(C(=O)/C=C(\N)C(F)(F)F)c(O)c1	1%	-12	0.8	-32	11
CCCCC/C(=N\NC(=O)CCC(=O)NCc1ccccc1)c1ccccc1	-3%	0	0.1	-15	-21
O=C(Cc1ccccc1)N1CCN(CCCc2ccccc2)CC1	.	3	1.6	.	.
CCC(=O)n1nc(-c2ccccc2)nc1N	8%	-1	1.5	1	-2
c1ccc(Nc2nc(N3CCCC3)nc(N3CCCC3)n2)cc1	15%	22	0.7	-5	17
Cc1ccc(C(=O)CCC(=O)OCC(=O)N(CC(C)C)c2c(N)n(Cc3ccccc3)c(=O)[nH]c2=O)cc1	.	-8	0.7	.	.
COc1ccc(CC(=O)N2CC3(C)CC2CC(C)(C)C3)cc1OC (configuration not stated)	0%	-4	-0.6	-36	-6	Arbovirus anti repeat=-5
O=C(NC1CCCCC1)C(c1ccncc1)N(Cc1ccc(F)cc1)C(=O)c1ccccn1 (configuration not stated)	.	-8	-3.0	.	.
COC1=CC(=Cc2c(N)n3nc(CC(=O)N4CCOCC4)sc3nc2=O)C=C(OC)C1=O	.	10	-4.9	.	.
Cc1nc2c(C(=O)N3CCOCC3)cnn2c(C)c1Cc1cccc(Cl)c1	.	-2	3.3	-23	4
COc1ccc(CCNc2oc(COc3ccc(Br)cc3)nc2C#N)cc1OC	6%	0	9.6	-44	-4
Cc1ccc(N2CC(C(=O)Nc3ccc4c(c3)OCCO4)CC2=O)cc1 (configuration not stated)	2%	-3	2.4	-21	0

Part of the list above in order of length of the SMILES, low to high:
SMILES	Mtb H37Rv	Mtb bLac sens	RecA splice inh	YopH PTP inh	Arbovirus anti	others
CCC(=O)n1nc(-c2ccccc2)nc1N	8%	-1	1.5	1	-2
O=C(Cc1ccccc1)N1CCN(CCCc2ccccc2)CC1	.	3	1.6	.	.
COc1ccc(C(=O)/C=C(\N)C(F)(F)F)c(O)c1	1%	-12	0.8	-32	11
c1ccc(Nc2nc(N3CCCC3)nc(N3CCCC3)n2)cc1	15%	22	0.7	-5	17
COc1ccc(CC(=O)N2CC3(C)CC2CC(C)(C)C3)cc1OC (configuration not stated)	0%	-4	-0.6	-36	-6	Arbovirus anti repeat=-5
Cc1ccc(CNC(=O)C(=O)NCC(c2ccco2)N2CCOCC2)cc1 (configuration not stated)	-3%	5	-4.9	-21	-9
Cc1ccc(N2CC(C(=O)Nc3ccc4c(c3)OCCO4)CC2=O)cc1 (configuration not stated)	2%	-3	2.4	-21	0
O=C(Nc1ccc(F)cc1F)c1cccnc1Oc1cccc(C(F)(F)F)c1	-5%	-3	-1.1	-78	-1
O=C(O)CCCNC(=O)/C(=C\c1ccc(Cl)cc1)NC(=O)c1ccc(Br)cc1	5%	7	-0.7	.	4
O=C(NC1CCCCC1)C(c1ccncc1)N(Cc1ccc(F)cc1)C(=O)c1ccccn1 (configuration not stated)	.	-8	-3.0	.	.
COC1=CC(=Cc2c(N)n3nc(CC(=O)N4CCOCC4)sc3nc2=O)C=C(OC)C1=O	.	10	-4.9	.	.
CCOc1ccc(N2C(=O)CC(Sc3ccccc3C(=O)O)C2=O)c([N+](=O)[O-])c1 (configuration not stated)	-6%	5	8.4	.	5
CN(C)S(=O)(=O)n1cc(/C=C(\NC(=O)c2ccccc2)C(=O)N2CCOCC2)c2ccccc21	.	4	-1.8	.	.
Cc1ccc(C(=O)CCC(=O)OCC(=O)N(CC(C)C)c2c(N)n(Cc3ccccc3)c(=O)[nH]c2=O)cc1	.	-8	0.7	.	.
